UUG fidelity: yeast start codon fidelity modulation; AID 602363; activity score, % at 18.7 µM; S. cerevisiae UUG-firefly luciferase reporter, luminescence/redox ratio; actives 0.13% (n = 350,000);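 active = replicate mean at a twofold rise or more, about +100% in these data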;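 note: firefly luciferase made from a UUG start codon reports start codon fidelity; reporter light over untreated wells divided by growth signal over untreated wells; some hits fall short of that in this replicate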
PABP FP inh: PABP-poly(A) binding inhibition; actives 1% (n = 290,000); PABP-poly(A) RNA binding, fluorescence polarization; P11940; inhibition, % at 35 µM;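 active = 50% or more with normal probe brightness, or confirmed in later tests; inconclusive = above 50% with abnormal brightness, or retests that disagree; inactive = below 50% or failed in later tests; about a fifth of its hits are not listed in these tables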;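 note: calls also rest on retests at 20 µM and on dose response follow-up; controls were probe without protein and protein plus probe with vehicle; some compounds called inactive have numbers as strong as hits; many hits fall short of the cut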
CSC inhib: blocks cancer stem cells; cancer stem cell-like cells viability, luminescence; inhibition, % at 7.5 µM; actives 1.1% (n = 300,000); AID 2717;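 active = mean at 75% or more and at least half the replicates too; inconclusive = mean and replicates disagree; tested in HMLE shEcad cells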;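 note: 0% = median of negative and 100% = median of positive control wells; the first replicate is given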
eIF4H FP inh: inhibitors of RNA binding by human eIF4H. Q15056. eIF4H fluorescence polarization binding assay. inhibition, % at 35 µM. actives 0.94% (n = 290,000). AID 2012;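 active = 50% or more with normal probe brightness, or confirmed in later tests; inconclusive = above 50% with abnormal brightness, or retests that disagree; inactive = below 50% or failed in later tests; about a fifth of its hits are not listed in these tables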;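 note: calls also rest on retests at 20 µM and on dose response follow-up; 0% = protein and probe with vehicle and 100% = probe without protein; strong numbers were not always called active; many hits fall short of the cut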
MT1-MMP act inh: inhibitors of human MT1-MMP activation | HT1080 RFP-PRO-GFP cells, GFP/RFP ratio fluorescence, overnight; percent of plate control window, DMSO zero | GFP/RFP ratio change, % at 20 µM | actives 0.061% (n = 360,000) | AID 651647;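 active = GFP/RFP ratio change of at least 30% with cell ATP level not reduced by more than half and red fluorescence within 50% of control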; note: strong numbers were not always called active
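Test system: HT1080 RFP-PRO-GFP cells; Benchmarks: DMSO and RFP-L50D-GFP cell wells; Timing: cells overnight before dosing, compound overnight, 37 °C, 5% CO2; Compound: one 20 µM compound dose with 1% DMSO; Read-out: GFP/RFP fluorescence ratio.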
Env fusion inh: inhibitors of HIV Env-mediated cell fusion. HeLa-JRFL Env/CEM21 cell fusion, luciferase. inhibition, % at 12.3 µM. actives 1.1% (n = 360,000);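 active = mean replicate inhibition score of at least 50 and every replicate individually at or above 50; inconclusive = only one of the two criteria met; inactive = mean below 50 and not all replicates reaching 50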;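 note: 0% = plate neutral controls and 100% = maraviroc near 300 nM; one replicate is shown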
Rce1 inh: yeast Ras-converting enzyme inhibition; AID 2563; Q03530; yeast membranes, quenched prenylated peptide cleavage fluorescence; calls only; actives 0.27% (n = 290,000);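 active = fall in fluorescence gain of 50% or more versus controls, with final raw signal at or below 3038400; inconclusive = same 50% fall but final raw signal above 3038400; inactive = fall in fluorescence gain under 50%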;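 note: plate controls were neutral control wells for no effect and wells lacking membranes for full effect; tested at 10 µM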
Target sequence (Q03530 whole entry, looked up): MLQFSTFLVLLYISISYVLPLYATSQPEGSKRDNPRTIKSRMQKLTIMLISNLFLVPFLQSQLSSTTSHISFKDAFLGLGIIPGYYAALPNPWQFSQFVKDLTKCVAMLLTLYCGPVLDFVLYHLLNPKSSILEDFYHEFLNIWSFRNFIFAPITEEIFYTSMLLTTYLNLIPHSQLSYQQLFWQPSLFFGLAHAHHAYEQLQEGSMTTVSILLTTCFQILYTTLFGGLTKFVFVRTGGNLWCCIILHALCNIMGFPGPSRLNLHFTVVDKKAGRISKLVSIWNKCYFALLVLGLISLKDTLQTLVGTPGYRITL
eIF4H FP inh retest: second read-out of eIF4H FP inh, no call of its own (marks repeat the call); inhibition, %; compound at 20 µM; confirmation average;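 mean of two retest wells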
PABP FP inh retest: further read-out of PABP FP inh, marked with its call; inhibition, %; compound at 20 µM; confirmation repeats;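 mean of two retest wells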
MT1-MMP act inh RFP: also measured in MT1-MMP act inh; calls as there; RFP signal change, %; measured here: RFP expression control read;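 0 = vehicle wells; hits needed this value within 50% of zero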
An asterisk follows results filed as active; i = inactive; ? = inconclusive; / = not tested or not shown. A portion of the library, so the mix of outcomes need not match the whole.

SMILES	UUG fidelity	PABP FP inh	CSC inhib	eIF4H FP inh	MT1-MMP act inh	MT1-MMP act inh RFP	Env fusion inh	Rce1 inh	others
CC(/C=N/NC(=O)c1cccs1)=C\c1ccco1	-2	-4	-8	44	-2	2	-32	i
O=C(CCc1nc2ccccc2s1)OCC(=O)c1ccccc1	/	-18	-8	0	-5	1	-6	i
Cc1ccccc1C(=O)NCC(=O)N1CCN(c2ccccn2)CC1	-17	/	-22	/	-3	1	-8	/
O=C(Nc1nnc(C(F)(F)F)s1)c1cccnc1	-16	24	10	8	3	-2	-53	i
COc1cc(C(=O)NCC(c2ccccc2)N(C)C)ccc1OCc1c(C)noc1C (stereo not given)	-10	/	/	/	-5	-2	-5	/
COc1ccc(CN2CCN(Cc3ccco3)CC2)cc1OC	-8	0	-18	16	1	5	3	i
O=C(CCCN1C(=O)c2ccccc2C1=O)NCCCn1ccnc1	/	9	-11	-8	-2	2	-11	i
COc1ccccc1C(c1c(N)n(C)c(=O)n(C)c1=O)C(C)[N+](=O)[O-] (stereo not given)	-20	0	9	-5	4	-1	3	i
O=C(NCCc1nc2ccccc2[nH]1)/C(=C/c1ccco1)NC(=O)c1ccc(Br)o1	-16	-22	-7	-1	-2	1	2	i
O=C(CCC1CCCN(Cc2cccc3c2OCO3)C1)NCc1ccc(F)c(F)c1 (stereo not given)	/	7	/	1	11	3	6	i
O=C(NCC(c1ccco1)N1CCc2ccccc2C1)C(=O)Nc1ccccc1 (stereo not given)	-25	/	-1	/	3	-1	0	i
CCOC(=O)c1cccc(NC(=O)C2CCCN(c3nnc(N4CCCC4=O)s3)C2)c1 (stereo not given)	-13	-10	-2	-10	-2	2	-59	i
O=C(c1sc2cc(F)ccc2c1Cl)N1CCN(c2cccc(Cl)c2)CC1	-12	0	43	-3	3	2	-3	i
COc1ccc(OC)c(S(=O)(=O)NCC(c2cccs2)N2CCc3ccccc3C2)c1 (stereo not given)	8	/	8	/	-3	0	24	i
CC1=NN(c2ccccc2)C(=O)C1/C=C1/NC(=S)NC1=O (stereo not given)	-10	-5	-1	1	5	6	0	i
CCOC(=O)C1CCN(Cc2ccc(C(=O)OC)cc2)CC1	8	18	/	9	1	4	/	i
COc1ccc(-c2c(C)n([O-])c(C)c(C)[n+]2=O)cc1OC	-16	1	15	0	1	-5	/	i
CCN(CC)C1CCN(Cc2cn[nH]c2-c2ccc(OC)c(F)c2)C1 (stereo not given)	/	-5	-8	-1	1	3	-5	i
N#Cc1ccc(-c2ccc3c(c2)OCO3)nc1SCC(=O)OCc1ccccc1	-11	12	4	9	-2	2	-50	i
COc1cccc(N2CC(C(=O)Nc3nnc(SCC(=O)Nc4ccc(NC(C)=O)cc4)s3)CC2=O)c1 (stereo not given)	2	9	-5	-8	0	2	/	i
CC(=O)NCCN=C(C)c1sc2ccccc2c1O	-14	1	-7	0	4	8	/	i
CC1(C)Cc2c(sc(NC(=O)COc3ccc(Cl)cc3)c2C#N)C(C)(C)N1	2	-6	4	-12	3	-3	/	i
CN1CCN(c2cc(C(F)(F)F)nc3ccc(F)cc23)CC1	-2	7	-14	10	-2	0	-16	i
COc1ccc(NC(=O)CCS(=O)(=O)c2cccc3nonc23)cc1Cl	-6	4	-10	0	2	2	12	i
Cc1ccccc1C(=O)N1CCC(C(=O)Nc2ccccn2)CC1	-19	/	11	/	6	1	/	i
O=C(Nc1ccc2c(c1)CCC2)c1ccc(Br)s1	-10	-6	/	-6	0	1	-145	i
O=c1oc2ccc3ccccc3c2cc1-c1nnc(-c2ccccc2)o1	0	9	10	11	6	5	/	i
CCOc1ccc(N(CC(=O)Nc2cccc(F)c2)S(=O)(=O)c2c(C)noc2C)cc1	-11	-16	30	-10	0	-4	-5	i
CC(C)NC(=O)CSc1nc(-c2cccs2)cc(-c2ccccc2)c1C#N	-16	8	-17	-4	-2	0	-13	/
Cc1cc(CNCc2c(C(=O)N(C)Cc3ccccc3)nc3ccccn23)nn1C	/	-12	-12	-6	1	2	4	i
CCN(C(=O)c1cnc(NC(C)C)cc1C(F)(F)F)c1ccc(Cl)cc1	16	1	-1	-2	-1	-12	-31	i
COCCCN1C(=O)C(=O)/C(=C(/O)c2ccc(S(=O)(=O)N3CCOCC3)cc2)C1c1cccc(Cl)c1 (stereo not given)	3	/	-12	/	0	5	4	i
CC(C)C(C)NC(=O)COC(=O)c1cccc(C(=O)OCC(=O)NC(C)C(C)C)n1 (stereo not given)	/	-10	18	-11	-1	5	10	i
O=C(CC1N=C2c3ccccc3N=C(SCc3ccc(Cl)cc3)N2C1=O)NCc1ccco1 (stereo not given)	-16	44	14	84	-5	0	/	/	eIF4H FP inh retest=38;PABP FP inh retest=43
COc1ccc2c(CC(=O)OCC(=O)Nc3cccc(S(N)(=O)=O)c3)coc2c1	-15	4	-4	-5	2	7	14	i
CN1CCN(S(=O)(=O)c2ccc(-c3noc(C4CCN(S(C)(=O)=O)CC4)n3)cc2)CC1	-11	6	-12	-6	5	3	-11	i
COc1ccc(S(=O)(=O)N(C)CC(=O)NCCC2=CCCCC2)cc1OC	-2	-4	-15	5	14	2	-23	i
Cc1ccsc1C(=O)N1CCCC(CO)(Cc2ccccc2)C1 (stereo not given)	-4	4	-1	-4	0	0	/	i
Cc1cc(N2CCN(C)CC2)nc2ccc(NC(=O)CCC(=O)NCCCOC(C)C)cc12	/	8	-4	9	-1	2	-8	i
O=C1Nc2ccccc2O/C1=C\c1ccccc1	-10	-6	-3	-6	4	6	-6	i
C=C(C)CSc1nnc(-c2cccc(S(=O)(=O)N(C)C)c2)n1-c1cc(OC)ccc1OC	-18	23	/	-5	-1	-2	-35	i
CCC1(C(N)=O)CC2C=CC1C2 (stereo not given)	-3	/	/	/	4	6	-3	/
C=C(C)COc1ccc(-c2n[nH]c(C)c2-c2ccc(OC)c(OC)c2)c(O)c1	-14	4	81*	2	-7	-15	12	i
CCCCOc1cccc2c(=O)n(CC(=O)Nc3ccc4c(c3)OCCO4)ccc12	-29	/	/	/	1	-2	-9	/
Cc1cc(Br)ccc1NC(=O)CN(C)C(=O)c1cc([N+](=O)[O-])ccc1N1CCOCC1	27	/	2	/	2	-2	1	i
COc1cc(C(CCN2CCCC(C)C2)c2c(OC)cc(OC)c3c2OC(=O)CC3c2ccc(N(C)C)cc2)cc(OC)c1OC (stereo not given)	-2	-7	-3	5	2	-1	/	i
Cc1[nH]c2ccccc2c1C(=O)C(=O)Nc1ccc2c(c1)OCO2	-14	7	3	-2	3	-1	-22	i
N#C/C(=C/c1ccc(CNS(=O)(=O)c2ccccc2)o1)C(=O)NCc1ccccc1	/	0	-11	54	0	7	-4	i	eIF4H FP inh retest=2;PABP FP inh retest=12
CC(Oc1ccc(Cl)cc1Cl)C(=O)Nc1ccc2oc(-c3ccncc3)nc2c1 (stereo not given)	-13	-8	63	-14	-5	-19	64*	i
Cc1ccc(C(=O)OCC(=O)c2ccc(CC(=O)N3CCOCC3)s2)cc1C	-11	/	/	/	-4	2	0	/
Cc1ccc(C2C(C#N)=C(N)N(N(C)C)C3=C2C(=O)CCC3)cc1 (stereo not given)	/	46	-15	17	4	2	-5	i
COc1ccc(N2CC(C(=O)Nc3cccc(OC(C)C)c3)CC2=O)cc1 (stereo not given)	-3	10	1	-4	0	0	5	i
CC1CC(C)CN(S(=O)(=O)CCNC(=O)c2ccccc2)C1 (stereo not given)	-12	/	-12	/	3	2	9	i
COCCn1c(=NC(=O)c2ccc3c(c2)OCO3)c(C#N)cc2c(=O)n3cccc(C)c3nc21	/	13	/	3	/	/	/	i
N#C/C(=C1\CCCN1)c1nc2ccccc2c(=O)[nH]1	5	4	-17	-13	6	7	/	i
Cc1ccc(C)c(C(=O)COC(=O)c2cc(Cl)nc3ccccc23)c1	/	-1	-4	3	8	-7	-78	i
O=C1OC(N2C(=O)CC[C@H]2C(=O)NCC2CCCO2)c2ccccc21 (stereo not given in full)	-5	5	0	4	4	3	/	/
COc1cccc(OCCNc2cc(N3CCOCC3)ccc2[N+](=O)[O-])c1	/	6	4	14	-4	-10	-5	i
COC(=O)c1ccc(COC(=O)C2CC(O)CN2S(=O)(=O)c2ccc([N+](=O)[O-])cc2)cc1 (stereo not given)	-1	/	/	/	3	-9	0	/
CSc1ncccc1C(=O)OCC(=O)Nc1ccc2c(c1)OCO2	/	2	-10	1	-1	1	-4	i

Reprinted from the results shown (3 entries):
SMILES	UUG fidelity	PABP FP inh	CSC inhib	eIF4H FP inh	MT1-MMP act inh	MT1-MMP act inh RFP	Env fusion inh	Rce1 inh	others
CC(/C=N/NC(=O)c1cccs1)=C\c1ccco1	-2	-4	-8	44	-2	2	-32	i
O=C(CCc1nc2ccccc2s1)OCC(=O)c1ccccc1	/	-18	-8	0	-5	1	-6	i
Cc1ccccc1C(=O)NCC(=O)N1CCN(c2ccccn2)CC1	-17	/	-22	/	-3	1	-8	/

Next section:
SMILES	UUG fidelity	PABP FP inh	CSC inhib	eIF4H FP inh	MT1-MMP act inh	MT1-MMP act inh RFP	Env fusion inh	Rce1 inh	others
Cc1ccc(C)c(S(=O)(=O)N2CCN(C(=O)c3ccccc3Cc3ccccc3)CC2)c1	2	/	7	/	-7	-7	-23	i
Nc1nc(NCc2ccco2)nn1-c1ccccc1	-15	5	-16	-7	0	2	-31	i
NCCCCCC(=O)O	-13	/	-12	/	7	6	-2	/
CN(C(=O)COC(=O)/C=C/c1ccc(Cl)c(Cl)c1)c1c(N)n(Cc2ccccc2)c(=O)[nH]c1=O	-20	/	/	/	2	-6	-3	i
O=C(COC(=O)c1cc(S(=O)(=O)N2CCOCC2)ccc1Cl)NCc1ccccc1	-6	/	-9	/	-3	-1	-1	/
O=C(CNS(=O)(=O)c1ccc(Br)cc1)N1CCN(c2ccc(F)cc2)CC1	3	2	-9	-2	7	-4	/	i
C=CCn1c(-c2ccc(Cl)cc2)c[nH]c1=S	-27	-5	-8	-4	2	-4	-17	i
C#Cc1ccc(NC(=O)C2(C)CCN2C(=O)C2(c3ccccc3)CCCC2)cc1 (stereo not given)	-14	/	/	/	-8	-16	15	/
COCCCn1c(-c2ccc(Cl)cc2)n[nH]c1=S	-13	9	4	-11	/	/	-215	i
COc1cccc(CNC(=O)CCNC(=O)N2CCn3c2nc2ccccc23)c1	-24	-6	1	-15	5	3	2	i
Cc1ccc(C(=O)N2CCN(S(C)(=O)=O)C2)cc1	-18	-12	3	0	1	3	/	i
O=C(NCc1ccc(F)cc1)C1CCCN(c2cnccn2)C1 (stereo not given)	-4	7	2	-10	2	5	14	i
CS(=O)(=O)N1CCN(C(=O)Cc2ccc(Br)cc2)CC1	-7	3	/	6	7	-2	10	i
Cc1ccc(S(=O)(=O)NCc2ccccc2)cc1C(=O)N1CCN(S(=O)(=O)c2ccccc2)CC1	-5	/	/	/	-1	1	-2	/
CCN(c1ccc(N=Cc2c(O)n(Cc3ccc(OC)cc3)c(=O)c3ccccc23)cc1)C(C)C	/	3	/	?	-141	0	-4	/
Cc1ccc(C2C(C#N)=C(N)Oc3cc(N)ccc32)cc1 (stereo not given)	-17	1	27	-9	3	-1	9	i
COc1ccccc1CNC(=O)[C@@H]1CCCN1S(=O)(=O)c1ccc(Cl)cc1	-12	-4	-1	-5	2	1	20	/
O=C(O)CCN(CCC(=O)O)c1ccccc1	-14	6	4	-10	-2	-2	/	i

High-throughput results as filed in PubChem BioAssay.
